LYP phosphatase = inhibitors of LYP phosphatase, biochemical, fluorescence intensity, uHTS (AID 1779). recombinant LYP phosphatase, fluorescence intensity; higher % means a stronger effect. hit rate 0.054% among 290,000. inhibition, % at 11.5 µM; hits with a dose series show IC50 in µM; in the data active means inhibition above about 50%;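 further: plate controls were vehicle with enzyme for no effect and no enzyme for full effect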
GPR55 LPI antagonism = GPR55 antagonists blocking LPI-driven arrestin recruitment, primary screen, imaging, U2OS, beta-arrestin-GFP, LPI agonist (AID 2013); U2OS GPR55 beta-arrestin-GFP translocation imaging, LPI antagonism; higher % means a stronger effect; hit rate 0.13% among 290,000; inhibition, % at 10 µM, or IC50 in µM where a hit was titrated;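 active means spots per cell inhibited over 60%, with over 100 cells counted and total cytoplasm intensity under 500,000; inconclusive means wells with under 100 cells, flagged as likely toxic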;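 further: U2OS cells stably carrying GPR55 and arrestin-GFP stimulated by 5 µM LPI near EC80; imaged beta-arrestin-GFP aggregate spots per cell after agonist stimulation; plate controls were LPI-stimulated DMSO wells for no effect and DMSO wells without LPI for full effect; some results filed as inactive read as strong as hits; confirmed hits need IC50 under 10 µM and bright autofluorescent wells are also inconclusive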
Myeloid diff 2 = promotes myeloid progenitor differentiation; calls only at 10 µM; hit rate 1% among 360,000; ER-HoxA9 myeloid progenitors, lysozyme-GFP differentiation, flow cytometry; AID 624256;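 active means normalized GFP-positive differentiation at or above the plate's own cutoff, the solvent-only control mean plus 3 SD; inconclusive means no clear call, values can overlap the other calls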;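 further: cells exposed to compound for four days before flow analysis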
Rac1 GTP hydrolysis = MgcRacGAP GTPase-activating activity inhibitors, confirmation, biochemical, ADP Hunter fluorescence. MgcRacGAP-stimulated Rac1 GTP hydrolysis, ADP Hunter fluorescence; higher % means a stronger effect; GST-tagged Rac1 F28L mutant substrate. one-dose inhibition, % at 30 µM; IC50 in µM for titrated hits. hit rate 0.6% among 340,000;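 active means first-screen hits whose inhibition reached a set limit at any dose in the follow-up dose series; inconclusive means inhibition above the set first-screen limit but never retested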;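 further: fluorescence reports GDP produced by GAP-driven GTP hydrolysis; strong numbers were not always called active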
GPR35 arrestin U2OS = GPR35 antagonists blocking zaprinast-driven arrestin recruitment, primary screen, imaging, U2OS, beta-arrestin-GFP, zaprinast agonist (AID 2058); U2OS GPR35 beta-arrestin-GFP translocation imaging, zaprinast antagonism; higher % means a stronger effect; inhibition, % at 10 µM; hits with a dose series show IC50 in µM; hit rate 0.052% among 290,000;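 active means inhibition of at least 50% with at least 30 cells and total cytoplasm GFP at most 10,000,000; inconclusive means under 30 cells or total GFP of 10,000,000 plus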
Myeloid diff 2 GFP+ MAC1+ % = further read-out of Myeloid diff 2, marked with its call; GFP+ MAC1+ double positive, %; measured here: differentiation confirmed by MAC1 staining
Numbers without * were called inactive; i = inactive; u = inconclusive; x = not tested or not shown; & = joins results of further samples. Only part of the results is shown; rates above refer to the full screens.

SMILES	LYP phosphatase	GPR55 LPI antagonism	Myeloid diff 2	Myeloid diff 2 GFP+ MAC1+ %	Rac1 GTP hydrolysis	GPR35 arrestin U2OS
NCCCC[C@H](N[C@@H](CCc1ccccc1)C(=O)O)C(=O)N1CCC[C@H]1C(=O)O	-10%	-2%	i	2.8&0.4	0%&10%	-10%
NC(=NCc1ccc2c(c1)OCO2)NC(=O)c1ccccc1	-8%	8%	i	0.1	6%	4%
COc1ccccc1OCC(O)CO (stereo not drawn)	-7%	-25%	i	3.3	-3%	-20%
Oc1c(C(c2ccccn2)N2CCOCC2)ccc2cccnc12 (stereo not drawn)	-3%	-5%	x	x	-9%	7%
Nc1ccn(C2CSC(CO)O2)c(=O)n1 (stereo not drawn)	x	x	i	1.1	x	x
CCOC(=O)C1=C(C)NC(C)=C(C(=O)OC)C1c1cccc(Cl)c1Cl (stereo not drawn)	0%	85%*	i	3.4	7%	-6%
CC[C@H](CO)NCCN[C@H](CC)CO	-3%	6%	i	1.5	-5%	0%
O=C(CSc1ncnc2ccccc12)NCc1ccc2c(c1)OCO2	-4%	14%	i	0.9	-7%	-1%
N=C1/C(=C\c2ccc(-c3cccc(C(=O)O)c3)o2)C(=O)N=C2SC=C(c3ccccc3)N12	7%	-10%	i	0.2	24%	2.3µM*
COCCc1ccc(OCC(O)CNC(C)C)cc1 (stereo not drawn)	-2%	-3%	i	0.5&2.4&0.7	5%&6%&6%	-2%
CCn1cc(C(=O)O)c(=O)c2cc(F)c(N3CCN(C(=S)NC(=O)c4ccccc4Cl)CC3)cc21	-4%	0%	i	0.1	6%	10%
O=C(O)Cn1nc(C(F)(F)F)c2c1CCCCC2	-8%	6%	i	0.1	3%	19%
CC(C)c1ccc2c(c1)c(SC(C)(C)C)c(CC(C)(C)C(=O)O)n2Cc1ccc(Cl)cc1	21%	-3%	i	1.2	0%	-7%
Cc1nc2ccccc2n1S(=O)(=O)c1ccc(F)cc1	0%	-8%	i	0.9	11%	7%
O=C(O)c1cccc(C(=O)O)c1	-8%	-4%	i	2.9	-4%	-3%
CCCCc1nc(Cl)c(CO)n1Cc1ccc(-c2ccccc2-c2nn[nH]n2)cc1	-12%	-1%	i	4.2	1%	-2%
CC(=O)Nc1cc(N=Cc2ccc(O)cc2O)c(Cl)cc1Cl	-1%	-4%	i	0.2	1%	5%
Cc1ncc(C[n+]2csc(CCO)c2C)c(N)n1	-9%	1%	i	1.2&1.8	8%&5%	-4%
Cn1cnc([N+](=O)[O-])c1Sc1ncnc2nc[nH]c12	-3%	6%	u	x	8%	9%
CN1CCN(C2=Nc3cc(Cl)ccc3Nc3ccccc32)CC1	0%	3%	i	1.8	8%	8%

Reprinted at random: three compounds from above, in no set order.
SMILES	LYP phosphatase	GPR55 LPI antagonism	Myeloid diff 2	Myeloid diff 2 GFP+ MAC1+ %	Rac1 GTP hydrolysis	GPR35 arrestin U2OS
Cc1ncc(C[n+]2csc(CCO)c2C)c(N)n1	-9%	1%	i	1.2&1.8	8%&5%	-4%
CC(C)c1ccc2c(c1)c(SC(C)(C)C)c(CC(C)(C)C(=O)O)n2Cc1ccc(Cl)cc1	21%	-3%	i	1.2	0%	-7%
CC(=O)Nc1cc(N=Cc2ccc(O)cc2O)c(Cl)cc1Cl	-1%	-4%	i	0.2	1%	5%

The main list resumes, repeating the three entries before the break.
SMILES	LYP phosphatase	GPR55 LPI antagonism	Myeloid diff 2	Myeloid diff 2 GFP+ MAC1+ %	Rac1 GTP hydrolysis	GPR35 arrestin U2OS
Cc1ncc(C[n+]2csc(CCO)c2C)c(N)n1	-9%	1%	i	1.2&1.8	8%&5%	-4%
Cn1cnc([N+](=O)[O-])c1Sc1ncnc2nc[nH]c12	-3%	6%	u	x	8%	9%
CN1CCN(C2=Nc3cc(Cl)ccc3Nc3ccccc32)CC1	0%	3%	i	1.8	8%	8%
COc1ccc(OC)c(C(=O)C2COC(=O)C2)c1 (stereo not drawn)	-2%	-4%	i	1.2	18%	-7%
NS(=O)(=O)c1ccc(NS(=O)(=O)c2ccc(NC(=O)c3ccc(-c4ccccc4)cc3)cc2)cc1	21%	-4%	i	0.6	-6%	3%
CC12CCC3c4ccc(O)cc4CCC3C1CC(O)C2O (stereo not drawn)	x	x	i	5.7	10%	x
CCNc1c2c3c(cccc3n(C)c1=O)C(=O)c1ccccc1-2	-2%	8%	x	x	x	5%
Nc1ncnc2c1ncn2C1CCCO1 (stereo not drawn)	x	x	i	1.2	2%	x
